Source: PubChem (National Center for Advancing Translational Sciences (NCATS))
VACV mCherry inh – inhibitors of vaccinia virus infection (mCherry reporter signal); Vaccinia virus mCherry reporter infection, fluorescence; about a quarter of the inactives have no number; Potency, µM (series often up to 36.5 µM), without a hit: at the top dose activity change, negative = inhibition, hits mostly inhibitors; 310,000 compounds, 0.63% hits; AID 720579; active = well fitted inhibition curve with a large enough effect; inconclusive = small, poorly fitted or top-dose-only effect; inactive = no such curve, though single readings can be large or run the other way; tested in A549 cells; note: nearly all actives have a fitted effect of over 35% in size; inactives centre near -10
Vaccinia Venus – inhibitors of vaccinia virus (Venus reporter). Vaccinia virus Venus reporter expression, fluorescence. Potency, µM (highest dose often 36.5 µM), without a hit: top-dose activity change, negative = inhibition, actives largely listed as inhibitors. 330,000 compounds, 0.46% hits. AID 720580; active means well fitted inhibition curve with a large enough effect; inconclusive means small, poorly fitted or top-dose-only effect; inactive means no such curve, though single readings can be large or run the other way; tested in A549 cells; note: nearly all actives have a fitted effect of over 30% in size; inactives centre near -10
* = called active by the depositor; i = inactive; u = inconclusive; x = not tested or not shown; & = joins results of further samples; [ ] = remark or other dose. % is set by controls: 0 for no effect and ±100 for the full control effect; potency is the fitted concentration of half-maximal effect.

Under each structure – VACV mCherry inh	Vaccinia Venus
> CCC[C@H]1COCCS(=O)(=O)N1Cc1cccc(F)c1
 : -6%	-18%
> CC(C)C[C@@H](CO)N1CCN(Cc2cccc(C#N)c2)CCC1=O
 : -3%&-5%	-15%&-14%
> COc1cc(C(=O)N2C[C@H]3CC[C@H]2C3)ccc1OC1CCN(C(C)=O)CC1
 : -16%	-11%
> O=C1NC(=O)C2(COC(c3cccc([N+](=O)[O-])c3)OC2)S1 (stereo not drawn)
 : i	-2%
> Cc1ccc(NC(=O)CNC(=O)c2cccc(C)c2)nc1
 : u	u
> CC(=O)c1ccc(OCC(=O)NCCC2=CCCCC2)cc1
 : i	-20%
> Cc1ccc(S(=O)(=O)Nc2ccc(-c3nc4ccc(C)cc4s3)cc2)cc1
 : u	-9%
> Cc1cccc(NC(=S)N/N=C/c2cccn2Cc2ccc(F)cc2)c1
 : -21%	-13%
> O=C1CSC(=S)N1/N=C/c1ccc2c(c1)OCCO2
 : -26%	9%
> CCCCN(CC)C(=O)CN(C)S(=O)(=O)c1cccc2nsnc12
 : i	-19%
> CCOC(=O)c1c(C)[nH]c(C(=O)OCc2nc3ccsc3c(=O)[nH]2)c1C
 : i	-9%
> CC(C)c1ccc(NC(=O)C2CCCN(S(=O)(=O)c3ccc(Br)s3)C2)cc1 (stereo not drawn)
 : u	-16%
> C=CCN(CCNP(=O)(OCC)OCC)CP(=O)(OCC)OCC
 : x	-3%
> COc1ccc(N=C(N)N=C(N)N)c(OC)c1
 : -14%	1%
> C(#Cc1ccccc1)C[N+]1(CC#Cc2ccccc2)CCCC1
 : -10%	-15%
> Nc1cc(Cl)ccc1N1CCCCCC1
 : -17%	-4%
> CC1CN(c2oc(-c3ccccc3Cl)nc2C#N)CC(C)O1 (stereo not drawn)
 : x	-13%
> O=C(COc1ncnc2sccc12)NC1CCCCC1
 : 1%	1%
> COc1cc(S(=O)(=O)Nc2ccncc2)ccc1F
 : -12%	4%
> CN1CCN(c2ccc(Cl)cc2NC(=O)CC2OC(=O)c3ccccc32)CC1 (stereo not drawn)
 : i	-17%
> O=C(Cc1ccc2c(c1)OCCO2)Nc1cc(Cl)ccc1N1CCOCC1
 : -10%	-7%
> S=C(Nc1ccccc1)N1CCC(Cc2ccccc2)CC1
 : i	-17%
> CCC(=O)N1CCc2cc(S(=O)(=O)NCCCN(CC)Cc3ccccc3)ccc21
 : u	-26%
> CC(C)NC1(C#N)CCN(Cc2ccccc2)CC1
 : -2%	3%
> O=C(NCC(=O)N(c1cccnc1)C(C(=O)NC1CCCCC1)c1ccccc1)c1ccco1 (stereo not drawn)
 : -5%	-6%
> COc1ccccc1NC(=O)c1ccc(NC(=O)COC(=O)C2CC2C)cc1 (stereo not drawn)
 : -15%	-8%
> COc1ccc(-c2sc3ccccc3c2/C=C/c2ccncc2)cc1
 : -18%	-18%
> CCc1ccc(CNc2ccc(N3CCN(C(C)=O)CC3)cc2)cc1
 : u	u
> C=CS(=O)(=O)N(Cc1ccccc1Br)[C@H](CO)Cc1ccccc1
 : u	1.1µM*
> COc1ccc(-c2cc(CCCC(=O)NCc3ccccn3)no2)cc1
 : -16%	-6%
> Cc1csc2nc(COC(=O)CNC(=O)c3ccc(F)cc3)cc(=O)n12
 : 4%	12%
> c1ccc(-c2csc3nnc(SCc4ccc5c(c4)OCCO5)n23)cc1
 : -4%	9%
> COc1ccc(OC)c2sc(N3CCc4ccccc4C3)nc12
 : -8%	-6%
> Cc1ccccc1Nc1ncnc(N)n1
 : i	2%
> CC1(C(=O)NS(=O)(=O)c2cccc(OC(F)F)c2)CCN1C(=O)C/C=C/c1ccccc1 (stereo not drawn)
 : i	-3%
> COc1cc(NC(=O)N2CCC3(CC2)Nc2ccccc2-n2cccc23)cc(OC)c1OC
 : -13%	-16%
> COc1cccc(OCC(O)CNC(=O)c2oc3c(C)c(C)ccc3c2C)c1 (stereo not drawn)
 : u	u
> COc1ccc(S(=O)(=O)N2CCCCC2)cc1NC(=O)CSc1nccn1C
 : 1%	5%
> Cc1c(NC(=O)Nc2cccc(C(F)(F)F)c2)c(=O)n(-c2ccccc2)n1C
 : -1%	-16%
> Cc1cc(OCC(=O)N(Cc2ccc(N(C)C)cc2)C2CCS(=O)(=O)C2)cc(C)c1Cl (stereo not drawn)
 : -12%	-6%
> CC(C)(C)NC(=O)C(c1ccccc1)N(Cc1ccco1)C(=O)c1csnn1 (stereo not drawn)
 : -8%	-10%
> COc1ccc2oc(C(=O)N3CCN(S(=O)(=O)c4ccc(F)cc4)CC3)c(C)c2c1
 : i	6%
> CC(=O)OCC(=O)Nc1ccc(Br)c(C)c1
 : -7%	-19%
> N#CCc1ccc(OC(=O)Nc2ccccc2)cc1
 : u	-18%
> N#CC1(NC(=O)CSc2nc3ccccc3o2)CCCCC1
 : -11%	-10%

Continued; the last 3 above are carried over.
Under each structure – VACV mCherry inh	Vaccinia Venus
> CC(=O)OCC(=O)Nc1ccc(Br)c(C)c1
 : -7%	-19%
> N#CCc1ccc(OC(=O)Nc2ccccc2)cc1
 : u	-18%
> N#CC1(NC(=O)CSc2nc3ccccc3o2)CCCCC1
 : -11%	-10%
> CCOC(=O)c1c(C)c(C(=O)N2CCN(c3ccccc3)CC2)c(C)n1C
 : i	-2%
> Cc1ccc2c(C)c(C(=O)N3CCC(N4CCC(C(=O)NC5CC5)CC4)CC3)oc2c1
 : i	-26%
> CCOc1cc2nc(-c3ccc(OC)c(OC)c3)nc(N3CCOCC3)c2cc1OC
 : 11µM*	u
> O=S(=O)(NCc1ccccc1)c1ccc(S(=O)(=O)NCC2CCCO2)cc1 (stereo not drawn)
 : i	-12%
> O=C1CNC(=S)N1C1CCCCCC1
 : i	10%
> O=C(O)CC1(CC(=O)Nc2ccc3c(c2)OCCCO3)CCCCC1
 : i[7.34 µM]	-3%[7.34 µM]
> COC(=O)c1ccc(-c2nc(-c3ccc(Br)o3)no2)cc1
 : i	-5%
> COc1ccc(N(CC(=O)N2CCN(c3ccc(F)cc3)CC2)S(=O)(=O)c2c(C)nn(C)c2C)cc1
 : -7%	-7%
> CCCCCn1c(=O)[nH]c2cc(C(=O)NCc3ccccc3)ccc2c1=O
 : -5%	-1%
> CC(=O)NC(Cc1cccc(F)c1)C(=O)NC1CCN(C(=O)Nc2ccc(C)cc2)CC1 (stereo not drawn)
 : -8%	-9%
> COc1cc(NC(=O)CN(C)S(=O)(=O)c2ccc3nc(C)sc3c2)cc(OC)c1
 : -8%	-9%
> N#Cc1cccc(NC(=O)c2cc(C3CCCCN3C(=O)CCc3ccccc3)on2)c1 (stereo not drawn)
 : 1%	-7%
> Cc1ccc(OCC(=O)Nc2ccc(-c3nc4ncccc4o3)cc2)cc1
 : -1%	-7%
> Cc1ccc(CCc2nnc(SCC(=O)Nc3cc(Cl)ccc3Cl)n2-c2ccccc2)o1
 : u	-26%
> Cc1cccc(-n2ncc(C(=O)N3CCc4ccccc4C3)c2C2CCN(C(=O)OC(C)(C)C)CC2)c1
 : -10%	2%
> CCCSc1nnc2c(n1)OC(c1ccc(Br)s1)Nc1ccccc1-2 (stereo not drawn)
 : -1%	-18%
> Cc1[nH]c2c(C)cccc2c1CCNS(=O)(=O)c1cccc([N+](=O)[O-])c1
 : -28%	-17%
> NC(=O)c1ccccc1NC(=O)Nc1ccccc1Cl
 : -15%	-11%
> CC(C)=CCN1CCN(Cc2c[nH]c3ccccc23)CC1CCO (stereo not drawn)
 : -19%	-6%
> CC(O)(c1ccccc1)c1nc(-c2ccc(Cl)cc2)cs1 (stereo not drawn)
 : -3%	-3%
> O=c1cc(CSc2ncn[nH]2)[nH]c2ccc(F)cc12
 : -6%	3%
> COc1cc(C(=O)O)nc2ccccc12
 : -10%[1.46 µM]	-14%
> CSc1ncc(C(=O)Nc2ccccc2C(F)(F)F)c(-c2ccccc2)n1
 : -12%	-5%
> O=C(O)C1Cn2c(nc3c(c2=O)C2(CCCC2)Cc2ccccc2-3)S1 (stereo not drawn)
 : i	-18%
> CC(=O)C1=C(C)OC(N)=C(C#N)C1c1cccc([N+](=O)[O-])c1 (stereo not drawn)
 : 8%	-1%
> CCS(=O)(=O)N1CCCC(C(=O)NCc2ccc3c(c2)OCO3)C1 (stereo not drawn)
 : -18%	-10%
> COc1cc(=O)n2c(c1C(=O)N(C)Cc1nccs1)CCN(Cc1cccc(F)c1F)CC2
 : -5%	0%
> COc1cc2cc(C(=O)N/N=C/c3cccc(OC)c3OC)[nH]c2cc1OC
 : i	-1%
> COc1ccc(S(=O)(=O)c2nnn(-c3ccc(C(C)C)cc3)c2C)cc1
 : -27%	u
> O=C(Nc1ccc(C(O)c2ccccc2)cc1)[C@@H]1O[C@H](CO)[C@H](O)[C@H](O)[C@H]1O (stereo partly drawn)
 : 6%	-2%
> CCCn1c(N)c(N(CCOC)C(=O)c2cccc(C(F)(F)F)c2)c(=O)[nH]c1=O
 : -1%	-12%
> COc1cc(NC(=O)c2ccc(-c3nc(CSc4ccccc4)c(C)o3)cc2)cc(OC)c1
 : -18%[7.34 µM]	-15%[7.34 µM]
> COc1cccc(NC(=O)c2ccc3c(c2)CCN3S(C)(=O)=O)c1
 : -3%	-3%
> CN(C(=O)CN1C(=O)/C(=C/c2ccccc2F)SC1=S)C1CCS(=O)(=O)C1 (stereo not drawn)
 : -14%[7.34 µM]	-1%[7.34 µM]
> Cc1ccc(NC(=O)CSCC(=O)N(C)CC(=O)Nc2ccccc2C(F)(F)F)cc1
 : -15%	-5%
> COc1cccc(-c2nccc(NCc3cccc(C)c3)n2)c1
 : -14%	-16%
> COc1ccc([C@H]2CC(=O)C=C(c3cc(F)ccc3F)C2)cc1OC
 : -22%	u
> Cc1cccc(C)c1NC(=O)CN(C)C(=O)CN1C(=O)NC2(CCCC2)C1=O
 : -13%	-10%
> CCC(=O)Nc1ccc(S(=O)(=O)N2CCCCC2)cc1OC
 : i	-9%
> Cc1ccc(C(=O)C(C)OC(=O)Cc2n[nH]c(=O)c3ccccc23)cc1C (stereo not drawn)
 : -8%	-23%
> O=C(NNS(=O)(=O)c1ccccc1)C1CCCCC1
 : -12%	12%
> COc1ccc(-c2cc3nc(C)c(CCC(=O)N4CCN(c5ccccc5)CC4)c(C)n3n2)c(OC)c1
 : -1%	4%
> COc1ccc(-c2c3c(=O)n(C)c(=O)n(C)c3cn2Cc2cccnc2)cc1
 : x	-6%
> Cc1ccc(N2C(N)=C(C#N)C3(C(=O)N(C)c4ccccc43)C3=C2CC(C)(C)CC3=O)cc1Cl (stereo not drawn)
 : -13%[1.46 µM]	-16%
> Nc1ccccc1C(=O)N/N=C1/C2CN3CCN(C2)CC1(Cc1ccccc1)C3
 : -2%	-15%

Among those listed so far, 3 contain a nitro group on carbon.
Under each structure – VACV mCherry inh	Vaccinia Venus
> O=C1NC(=O)C2(COC(c3cccc([N+](=O)[O-])c3)OC2)S1 (stereo not drawn)
 : i	-2%
> Cc1[nH]c2c(C)cccc2c1CCNS(=O)(=O)c1cccc([N+](=O)[O-])c1
 : -28%	-17%
> CC(=O)C1=C(C)OC(N)=C(C#N)C1c1cccc([N+](=O)[O-])c1 (stereo not drawn)
 : 8%	-1%

Other records follow.
Under each structure – VACV mCherry inh	Vaccinia Venus
> COC(=O)c1cc2sccc2n1CC(=O)Nc1ccc(OC)c(OC)c1
 : -10%	-10%
> Nc1ccc2cc(Br)ccc2c1
 : -13%	5%
> COc1ccc(C(=O)N2CC(c3ccccc3)CC2=O)cc1 (stereo not drawn)
 : -9%	-14%
> COC(=O)C1=CN(c2ccccc2OC)C(N)=C(C#N)C1c1cccc([N+](=O)[O-])c1 (stereo not drawn)
 : u	-21%
> Oc1c(Br)cc(/C=N/Nc2nncc3ccccc23)cc1Br
 : -6%	-1%
> Cn1c(=O)c(=O)n(C)c2cc(S(=O)(=O)N3CCCC3C(=O)Nc3ccc(F)cc3)ccc21 (stereo not drawn)
 : -7%&-9%	2%&0%
> CC1=C(C(=O)OCc2ccc(C)cc2)C(c2ccccc2F)CC(=O)N1 (stereo not drawn)
 : -8%	-14%
> OCCN(Cc1ccccc1)Cc1cccc(Cl)c1Cl
 : -3%	0%
> Cc1noc(Cn2c(=O)c3ccccc3n(CC(=O)Nc3cc(Cl)ccc3C)c2=O)n1
 : -1%	3%
> COc1ccc(N2CCN(C(C)C(=O)N3CCCC3)CC2)cc1 (stereo not drawn)
 : -2%	0%
> Cn1c(=O)c2cc(NC(=O)CCc3ccccc3)ccc2n1-c1ccccc1F
 : -30%	-17%
> CNC(=S)N1CCC(NC(=O)C(Cc2ccc(F)cc2)NC(C)=O)CC1 (stereo not drawn)
 : -1%	-11%
> C=CCN=C1N[C@@H](c2ccccc2)C(C(=O)OC)=C(C)N1CCOC
 : -12%	-4%
> Cc1ccnc(NC2(C(F)(F)F)N=C3SCCN3C2=O)c1 (stereo not drawn)
 : -2%	-2%
> COc1cccc(-n2c(=S)[nH]c3ccccc3c2=O)c1
 : i	-6%
> COC(=O)C1CCN(CC(=O)Nc2ccc(OC)c(Cl)c2)CC1
 : i	-8%
> CNC(=O)c1[nH]cnc1C(=O)Nc1ccccc1OC
 : -12%	-22%
> O=C(Cn1cc2c(n1)CCCCC2)NCc1ccccc1
 : -10%	-6%
> COc1ccccc1N1CC(C(=O)OCC(=O)c2c(N)n(C)c(=O)n(C)c2=O)CC1=O (stereo not drawn)
 : i	-3%
> CC(=O)/C(N=Nc1c(C)n(C)n(-c2ccccc2)c1=O)=C(\C)O
 : -2%	-9%
> Cc1nc2ccccc2n(CC(=O)Nc2cc(Cl)cc(Cl)c2)c1=O
 : i	-10%
> Cc1ccccc1C(=O)N1CCN(CCNC(=O)C(=O)Nc2ccc(Br)cc2)CC1
 : u	u
